D1 PAM: human D1 dopamine receptor positive modulation; P21728; HEK293 TREx D1 cells, calcium flux, dopamine EC20 potentiation; potentiation, % at 10 µM; 360,000 tested, 0.036% active; AID 504651; in the data active = potentiation above about 30%; note: 0% is about no effect
Target sequence (P21728 whole entry, looked up): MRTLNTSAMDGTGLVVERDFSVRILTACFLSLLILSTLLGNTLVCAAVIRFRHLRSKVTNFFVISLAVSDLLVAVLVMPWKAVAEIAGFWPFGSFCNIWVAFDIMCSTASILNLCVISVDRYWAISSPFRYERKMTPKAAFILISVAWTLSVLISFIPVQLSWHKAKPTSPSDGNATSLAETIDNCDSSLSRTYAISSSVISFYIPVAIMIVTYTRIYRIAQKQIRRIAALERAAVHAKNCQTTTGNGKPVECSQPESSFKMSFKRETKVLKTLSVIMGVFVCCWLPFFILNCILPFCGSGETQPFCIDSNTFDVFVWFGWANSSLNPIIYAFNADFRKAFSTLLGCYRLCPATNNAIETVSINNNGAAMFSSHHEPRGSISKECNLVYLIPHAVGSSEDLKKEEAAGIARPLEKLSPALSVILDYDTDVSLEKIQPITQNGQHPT
D2 ag: D2 dopamine receptor (human) agonism; 340,000 tested, 0.53% active; activation, % at 2 µM; HEK293 T-REx D2 cells, calcium flux agonist mode; P14416; AID 485358;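 active = activation over 3 SD above normal in the single-dose calcium agonist read, cut at about 30% in these data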; note: 0% is about no effect
Target sequence (P14416 whole entry, looked up): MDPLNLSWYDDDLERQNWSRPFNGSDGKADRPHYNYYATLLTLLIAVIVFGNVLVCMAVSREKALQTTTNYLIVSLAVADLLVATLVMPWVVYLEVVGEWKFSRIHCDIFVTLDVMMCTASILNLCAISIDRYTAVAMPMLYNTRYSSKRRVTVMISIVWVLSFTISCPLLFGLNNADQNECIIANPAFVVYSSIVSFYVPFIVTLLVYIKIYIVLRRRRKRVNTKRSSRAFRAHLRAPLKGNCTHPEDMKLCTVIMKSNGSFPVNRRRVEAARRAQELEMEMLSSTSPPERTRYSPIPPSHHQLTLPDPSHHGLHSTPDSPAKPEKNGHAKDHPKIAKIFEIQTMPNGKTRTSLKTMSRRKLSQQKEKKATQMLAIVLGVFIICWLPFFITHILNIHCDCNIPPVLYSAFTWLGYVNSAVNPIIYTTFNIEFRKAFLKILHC
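Calcium-flux readout, 1 cycle/sec over 180 s following compound pin transfer, in inducible HEK293 Trex D2 cells (force-coupled); dopamine controls included. Positive calcium responses during this window marked compounds as potential agonists.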
D1 ag: human D1 receptor agonism; P21728; HEK293 T-REx D1 cells, calcium flux, agonist mode; activation, % at 2 µM; 360,000 tested, 1% active; AID 504660; in the data active = activation above about 30%; note: 0% is about no effect
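Agonism was scored from calcium flux recorded over 180 s (1 read/s) after pintool compound addition, following a 10-cycle baseline. Cells were inducible force-coupled HEK293 TREx D1, plated overnight at 30 C and loaded with no-wash calcium dye.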
TRHR PAM: allosteric enhancers of human TRH receptor. P34981. TRHR cells, fluo-8 calcium fluorescence, EC20 TRH enhancement. enhancement, % at 2 µM. 360,000 tested, 0.66% active. AID 493056; in the data active = enhancement above about 30%; note: 0% is about no effect
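Enhancer read-out: after compound pinning and an initial kinetic agonist-mode read, an EC20 of TRH (10 nM final) was injected and fluo-8 calcium signal (Ex 480/Em 530) followed at 1 s/cycle for 100 cycles in TRHR-expressing cells.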
D2 PAM: positively modulates the human D2 dopamine receptor allosterically; 340,000 tested, 0.34% active; AID 485347; P14416; potentiation, % at 10 µM; HEK293 T-REx D2, calcium flux, EC20 dopamine potentiation;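 active = potentiation over 3 SD above the plate norm, cut at about 30% in these data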; note: 0% is about no effect
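Tetracycline-induced Hek293 Trex D2 cells, force-coupled to calcium, loaded with no-wash calcium dye. Compound added with 180 s kinetic read for agonism, then EC20 dopamine and a further 180 s read for potentiation.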
D2 antagonist: antagonizes the human D2 dopamine receptor; HEK293 TREx D2 cells, calcium flux, dopamine EC80; inhibition, % at 10 µM; 340,000 tested, 2% active; in the data active = inhibition above about 30%; note: 0% is about no effect
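Cells plated overnight at 30 C with tetracycline; no-wash calcium dye, 30–90 min RT; 10 s baseline; compound pinned; 180 s read; EC80 dopamine added; another 180 s read.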
D1 antag: human D1 dopamine receptor antagonism; HEK293 TREx D1 cells, calcium flux, dopamine EC80; stronger effect = lower value; AID 504652; activity change, negative = inhibition, % at 10 µM; 360,000 tested, 3.2% active; in the data active = activity change below about -30%; note: % is set by controls: 0 for no effect and ±100 for the full control effect
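Allosteric or orthosteric antagonism assessed as attenuation of the calcium response to EC80 dopamine, added 180 s after compound, in induced HEK293 Trex D1 cells loaded with no-wash calcium dye.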
Starred values were filed as active, the others as inactive; / = no result given. Only part of the results is shown; the hit share may differ from the screen's.

Field names – A = D1 PAM; B = D2 ag; C = D1 ag; D = TRHR PAM; E = D2 PAM; F = D2 antagonist; G = D1 antag
CCc1nc(SCC(=O)NNC(=O)c2ccc(OC)cc2)c2ccccc2n1
  A: 6	B: /	C: 5	D: 4	E: 9	F: /	G: 4

CCCNS(=O)(=O)c1cc(-c2nnc3c4ccccc4c(C)nn23)ccc1OC
  A: -5	B: -0.4	C: 5	D: 10	E: /	F: /	G: -17

CCOC(=O)c1n[nH]n2c1nc(=S)c1ccccc12
  A: -4	B: -0.5	C: 1	D: -1	E: 15	F: -6	G: -16

Cc1c(Cl)cccc1NC(=O)CSc1cc(-c2ccccc2)ncn1
  A: 1	B: 0.2	C: 1	D: -4	E: -11	F: /	G: 3

CNC(=O)c1ccc(Nc2nnc(C)c3ccccc23)cc1
  A: -4	B: -1.4	C: -2	D: -3	E: 11	F: -18	G: 17

CN(Cc1ccccc1)C(=O)CCS(=O)(=O)c1cc2c(cc1Cl)NC(=O)CO2
  A: -3	B: 0.2	C: 1	D: -1	E: 5	F: 5	G: -5

Cc1ccc(Sc2ccc(NC(=O)c3ccc(S(C)(=O)=O)cc3Cl)cc2)cc1
  A: -1	B: 0.7	C: 8	D: 0	E: 0	F: 12	G: -10

O=C(NCc1ccccc1Cl)c1ccc(Cn2c(=O)c3cccn3c3cccnc32)cc1
  A: -1	B: 0.0	C: -1	D: 14	E: 1	F: /	G: 1

Cc1cccc(Cn2c(=O)n(CCC(=O)NCCc3ccc(Cl)cc3)c(=O)c3sccc32)c1
  A: 1	B: 0.1	C: -1	D: -12	E: 13	F: /	G: -1

Cc1ccc(-n2nc3c(=S)[nH]nc(C)c3c2C)cc1
  A: 1	B: -0.7	C: 2	D: 2	E: 6	F: 13	G: -1

O=C(O)c1ccc(Nc2nc(-c3ccccc3)c3cc(Br)ccc3n2)cc1
  A: 0	B: 4.2	C: -2	D: 7	E: 2	F: /	G: -13

O=C(C(c1ccccc1)N1CCOCC1)N1CCOCC1 (stereo not drawn)
  A: -2	B: 0.1	C: 1	D: 8	E: -3	F: -12	G: -1

O=C(C1=C(O)C(=O)N(c2ncccn2)C1c1ccc(F)cc1)c1ccco1 (stereo not drawn)
  A: -1	B: 1.2	C: 1	D: 2	E: 5	F: -1	G: 7

Cc1ccc(-c2nc(CN(C)C3CCOC3)c(C)o2)s1 (stereo not drawn)
  A: -4	B: 1.3	C: 0	D: 3	E: -5	F: -11	G: -9

Cc1nn2c(-c3ccco3)nnc2c2ccccc12
  A: -10	B: -0.2	C: 2	D: 7	E: 9	F: -13	G: -19

Cc1nn2c(-c3ccccc3)nnc2c2ccccc12
  A: 0	B: 0.7	C: -1	D: 3	E: 4	F: -27	G: -9

CCCCOc1ccc(N(CC(=O)NC2CCCCC2)C(=O)c2snc(C(N)=O)c2N)cc1
  A: 0	B: -0.6	C: 0	D: -5	E: 1	F: 14	G: 8

Cc1ccc2nc3c(nc2c1)-c1ccccc1C3=O
  A: 1	B: 0.3	C: 2	D: -4	E: 6	F: 8	G: 2

O=C(C1CC(=O)N(c2ccc(Br)cc2)C1)N1CCCC1 (stereo not drawn)
  A: 0	B: -0.6	C: 1	D: -3	E: 5	F: -3	G: -16

CC(=O)Nc1ccc(S(=O)(=O)Nc2nc3ccccc3nc2Cl)cc1
  A: 0	B: -0.6	C: 1	D: 3	E: -1	F: -10	G: 3

COC(=O)Cn1c(=NC(=O)c2ccc(OC)c(OC)c2)sc2cc(OC)ccc21
  A: -1	B: -0.7	C: 1	D: -1	E: 6	F: 5	G: 1

Cn1c(C(=O)NCC2CCCO2)cc2c(=O)n3ccccc3nc21 (stereo not drawn)
  A: -3	B: 0.4	C: 1	D: -2	E: 9	F: -2	G: 5

Cc1ccc(OCc2nnc(SCC(=O)Nc3ccc4c(c3)OCCO4)n2Cc2ccco2)cc1
  A: -7	B: -0.7	C: 1	D: -3	E: 3	F: 3	G: -10

Cc1ccc(OCC(=O)Nc2cccc(S(=O)(=O)NC3=NCCCCC3)c2)cc1C
  A: -1	B: -1.6	C: 10	D: 0	E: 13	F: 3	G: 6

Cc1ccc(NC(=O)C(C)Sc2nnc(C)n2CC2CCCO2)cc1 (stereo not drawn)
  A: -4	B: -1.0	C: 1	D: -6	E: 0	F: 11	G: -5

Some of the entries so far, field by field:
CCCNS(=O)(=O)c1cc(-c2nnc3c4ccccc4c(C)nn23)ccc1OC
  D1 PAM = -5
  D2 ag = -0.4
  D1 ag = 5
  TRHR PAM = 10
  D2 PAM = /
  D2 antagonist = /
  D1 antag = -17
O=C(O)c1ccc(Nc2nc(-c3ccccc3)c3cc(Br)ccc3n2)cc1
  D1 PAM = 0
  D2 ag = 4.2
  D1 ag = -2
  TRHR PAM = 7
  D2 PAM = 2
  D2 antagonist = /
  D1 antag = -13

(list continues)
Field names – A = D1 PAM; B = D2 ag; C = D1 ag; D = TRHR PAM; E = D2 PAM; F = D2 antagonist; G = D1 antag
CC1CN(C2CC(C)(C)NC(C)(C)C2)CCC1=O (stereo not drawn)
  A: -7	B: 0.0	C: 6	D: -4	E: 2	F: 4	G: 0

O=C1CCCC(=O)C1=C1SCCCS1
  A: 2	B: -2.1	C: 1	D: -3	E: 16	F: -5	G: 5

CCOC(=O)c1cccc(NC(=O)c2ccc3c(c2)nnn3C2CCCC2)c1
  A: -4	B: 0.2	C: 12	D: 1	E: 3	F: /	G: 3

CCc1cc2c(cc3c(=O)n(CC(=O)NCCc4ccc(OC)c(OC)c4)ncn32)s1
  A: -4	B: -0.2	C: 0	D: -2	E: -6	F: /	G: 0

O=C1Nc2c(c(=O)[nH]c(=O)n2-c2ccc(F)cc2)C1(NS(=O)(=O)c1ccccc1)C(F)(F)F (stereo not drawn)
  A: -6	B: -1.1	C: 3	D: -4	E: 2	F: 15	G: -3

C/C(=N\NC(=O)c1ccc(NS(=O)(=O)c2cccs2)cc1)c1ccccn1
  A: 4	B: 0.2	C: 2	D: -2	E: 6	F: -9	G: -1

Cc1ccc(CSc2ccc3nnc(-c4cccnc4)n3n2)cc1
  A: -5	B: -0.3	C: 0	D: 1	E: 16	F: 12	G: 12

COc1ccc(C)cc1NC(=O)c1sc2ncn(CC(=O)N3CCCCC3)c(=O)c2c1C
  A: -2	B: -0.7	C: 2	D: 5	E: -6	F: -5	G: 13

CCCNC(=O)CCC(=O)Nc1ncc(-c2ccc(C)cc2)n1C
  A: -7	B: 0.3	C: 2	D: -1	E: -1	F: -20	G: -5

COc1ccc(OC)c(N(CC(=O)NCc2ccccc2)S(=O)(=O)c2ccc(OC)c(OC)c2)c1
  A: -5	B: 0.0	C: 1	D: -7	E: 3	F: -4	G: 0

COCCNC(=O)/C(C#N)=C/c1c(N2CCN(C)CC2)nc2c(C)cccn2c1=O
  A: -6	B: 0.9	C: 2	D: 5	E: -9	F: 6	G: -25

Cc1nn(-c2ccc(Cl)cc2)c2[nH]c(=O)c(CNCc3ccc4c(c3)OCO4)cc12
  A: 5	B: -0.1	C: -1	D: 5	E: 13	F: -6	G: 0

Cc1ccc(Cl)cc1N1CCN(Cc2nnnn2Cc2ccco2)CC1
  A: -3	B: 0.2	C: 2	D: 2	E: 9	F: -11	G: 2

CC(=O)Nc1ccc(S(=O)(=O)Nc2nc3cc4c(cc3nc2Cl)OCCO4)cc1
  A: -1	B: -1.8	C: 2	D: -3	E: -12	F: -10	G: -7

CC(C)c1ccc(-c2cc(C(=O)N3CCOCC3)c3cc(Br)ccc3n2)cc1
  A: 3	B: -1.3	C: 1	D: -16	E: 17	F: 14	G: -20

Cc1onc(-c2c(F)cccc2Cl)c1C(=O)Nc1nnc(C(F)(F)F)s1
  A: -5	B: 4.6	C: 26	D: 3	E: 3	F: 11	G: -27

O=S(=O)(Nc1cccnc1)c1ccc2c(c1)OCCO2
  A: -7	B: 0.6	C: 2	D: -2	E: -3	F: -11	G: 1

O=C(NC1CCCCC1)C(c1ccncc1)N(C(=O)c1csnn1)c1ccccc1 (stereo not drawn)
  A: -11	B: -0.4	C: 2	D: 3	E: -2	F: 1	G: -1

COC(=O)c1ccccc1NC(=O)CN1CCC(NC(=O)c2ccccc2C)CC1
  A: -4	B: -1.1	C: 2	D: -1	E: 5	F: -11	G: -15

S=c1[nH]ncn2c1cc1oc3ccccc3c12
  A: 3	B: 9.1	C: 0	D: 3	E: 2	F: -2	G: -9

Nc1c(-c2ccc(Cl)cc2)cnn1C1CCS(=O)(=O)C1 (stereo not drawn)
  A: -10	B: 0.4	C: 11	D: -6	E: -2	F: 11	G: -30*

Cc1nn2c(-c3cccc(NC(=O)c4ccccc4)c3)nnc2c2ccccc12
  A: -2	B: 7.4	C: 1	D: 8	E: -7	F: /	G: 7

CCOc1ccc(NC(=O)CSc2nc3cccnc3n2CC)cc1
  A: -5	B: 0.5	C: 0	D: -1	E: -7	F: -1	G: 14

Cc1cc(C)[n+](-c2ccc(Oc3ccccc3)c(S(=O)(=O)[O-])c2)[nH]1
  A: 4	B: 0.5	C: 1	D: 2	E: 6	F: 3	G: 2

COc1ccc(C(C)=O)cc1COc1ncnc2ccccc12
  A: 2	B: 0.4	C: 5	D: -3	E: -5	F: -14	G: -3

Arranged by SMILES length (rising): some entries from above
Field names – A = D1 PAM; B = D2 ag; C = D1 ag; D = TRHR PAM; E = D2 PAM; F = D2 antagonist; G = D1 antag
O=C1CCCC(=O)C1=C1SCCCS1
  A: 2	B: -2.1	C: 1	D: -3	E: 16	F: -5	G: 5

CCOC(=O)c1cccc(NC(=O)c2ccc3c(c2)nnn3C2CCCC2)c1
  A: -4	B: 0.2	C: 12	D: 1	E: 3	F: /	G: 3

Cc1nn(-c2ccc(Cl)cc2)c2[nH]c(=O)c(CNCc3ccc4c(c3)OCO4)cc12
  A: 5	B: -0.1	C: -1	D: 5	E: 13	F: -6	G: 0

Following part:
Field names – A = D1 PAM; B = D2 ag; C = D1 ag; D = TRHR PAM; E = D2 PAM; F = D2 antagonist; G = D1 antag
Cc1nn(C)cc1S(=O)(=O)NCc1ccc2c(c1)OCO2
  A: -2	B: 0.8	C: 1	D: -13	E: -4	F: 20	G: 8

CC(C)c1ccc(NC(=O)c2cc3sc(Cl)cc3n2C)cc1
  A: -4	B: -0.5	C: 7	D: 8	E: 5	F: /	G: 10

Cc1sc2ncnc(Sc3ccccc3C(=O)O)c2c1C
  A: 1	B: -0.2	C: 5	D: 35*	E: 2	F: -9	G: -7

COc1ccc(NC(=O)c2sc3ncn(CC(=O)N4CCCCC4)c(=O)c3c2C)cc1OC
  A: -9	B: 0.0	C: 0	D: 5	E: -6	F: 3	G: -7

CN(Cc1ccccc1)S(=O)(=O)c1ccc(F)c(C(=O)Nc2cc(Cl)cc(Cl)c2)c1
  A: 5	B: 0.8	C: -3	D: 3	E: -5	F: /	G: 13

O=C(CSc1nnc(-c2ccc(Br)cc2)n1-c1ccccc1)c1ccccc1
  A: -2	B: 0.3	C: 0	D: -2	E: /	F: /	G: 31

Cc1ccccc1NC(=O)CN1CCC(NC(=O)Nc2ccccc2)CC1
  A: -4	B: 0.2	C: 0	D: 5	E: /	F: -7	G: 11

Nn1c(SCC(=O)Nc2ccc(S(N)(=O)=O)cc2)nnc1C(F)(F)F
  A: 2	B: 0.7	C: 2	D: 6	E: -5	F: 1	G: 9

Cc1cc2c(cc3c(SCC(=O)Nc4ccc(Cl)cc4F)nncn32)o1
  A: -3	B: 0.5	C: 0	D: -6	E: -7	F: /	G: -2

COc1ccccc1-c1n[nH]c(=S)o1
  A: -8	B: 3.3	C: 0	D: -1	E: /	F: 8	G: 0

COc1ccccc1-n1ccnc1SCC(=O)NC(C)(C)C
  A: -2	B: -0.1	C: 2	D: -2	E: -8	F: 15	G: 2

O=S(=O)(c1cccc(C(F)(F)F)c1)N1CCC(O)(c2cccnc2)CC1
  A: -2	B: /	C: 1	D: -11	E: 5	F: /	G: -7

Screens (PubChem)
